# NS1 inh: influenza NS1 inhibition; S. cerevisiae slowed by influenza A NS1, growth recovery by OD600; Potency, µM (doses to about 46.1 µM), for the others: at the top dose activity, positive = more growth; actives 0.4% (n = 270,000); AID 2326; active means well fitted rising curve with a large enough effect; inconclusive means small, poorly fitted or top-dose-only effect; inactive means no such curve, though single readings can be large or run the other way; also: nearly all actives have a fitted effect of over 50% in size
#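 Compounds were scored for reversing the slow growth caused by influenza A NS1 in S. cerevisiae, measured by optical density at 600 nm. Assay medium contained 2% galactose at pH 6.0; NS1-free yeast of the same strain were the positive control.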
# Marburg entry inh: inhibitors of Marburg virus binding or cell entry; Marburg virus pseudotyped entry inhibition, cell reporter; control for the full effect not named in the record; about a third of the inactives were read at about 46 µM; Potency, µM (titrated, usually from 37.8 µM), for the others: at the highest dose activity change, negative = inhibition, usual class: inhibitors; actives 1.8% (n = 300,000); AID 540276; active = well fitted inhibition curve with a large enough effect; inconclusive = small, poorly fitted or top-dose-only effect, or effect the other way; inactive = flat fitted curve, though single readings scatter; tested in HEK293 cells; about a fifth of its hits are not listed in these tables; also: % is scaled to controls: 0 for no effect and ±100 for the full control effect; luciferase read-out
# Cruzain inh Det: cruzain (T. cruzi) inhibition with detergent. P25779. purified cruzain, Z-FR-AMC fluorescence, 0.01% Triton. Potency, µM, for the others: max response, negative = inhibition, usual class: inhibitors. actives 0.43% (n = 200,000);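 also: plate controls were neutral wells for no effect and buffer without enzyme for full effect; nearly all actives have a fitted effect of over 40% in size; top concentration of the series not given in the record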
# Target sequence (P25779 123-467 limits assumed): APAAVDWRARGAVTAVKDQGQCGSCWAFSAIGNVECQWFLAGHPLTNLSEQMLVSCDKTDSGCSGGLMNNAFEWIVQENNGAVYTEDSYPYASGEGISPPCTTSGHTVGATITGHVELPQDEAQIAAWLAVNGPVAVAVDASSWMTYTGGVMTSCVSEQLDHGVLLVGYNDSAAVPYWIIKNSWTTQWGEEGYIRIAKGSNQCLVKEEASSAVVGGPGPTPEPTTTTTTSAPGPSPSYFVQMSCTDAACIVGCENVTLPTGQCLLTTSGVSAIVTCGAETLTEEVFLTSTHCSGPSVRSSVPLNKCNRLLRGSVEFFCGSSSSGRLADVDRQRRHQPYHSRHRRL
#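 Detergent-containing arm of a paired screen for aggregation-based inhibition: 0.01% Triton X-100 present. Cruzain at 1.5 nM cleaved 2 uM Z-FR-AMC at pH 5.5 with 5 mM DTT; AMC fluorescence gain over 60 s measured activity.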
# SARS PLpro yeast: blocks SARS-CoV papain-like protease in a yeast assay. S. cerevisiae expressing SARS-CoV PLpro, growth rescue; control for the full effect not named in the record. Potency, µM (highest dose often 32.9 µM), inactives show at the top dose activity, positive = growth rescue. actives 0.19% (n = 330,000); active means well fitted rising curve with a large enough effect; inconclusive means small, poorly fitted or top-dose-only effect; inactive means no such curve, though single readings can be large or run the other way; also: 0% is about no effect; nearly all actives have a fitted effect of over 55% in size; growth read by luminescence after 48 h
# RE007 growth inh: less growth of the S. pombe RE007 Vpr strain; S. pombe RE007 Vpr strain, BacTiter-Glo ATP luminescence, 24 h; control for the full effect not named in the record; Potency, µM (titrated, usually from 92.2 µM), inactives show at the highest dose activity change, negative = less growth; actives 0.21% (n = 360,000); AID 651644; active = well fitted falling curve with a large enough effect; inconclusive = small, poorly fitted or top-dose-only effect; inactive = no such curve, though single readings can be large or run the other way;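 also: % is scaled to controls: 0 for no effect and ±100 for the full control effect; nearly all actives have a fitted effect of over 50% in size; the assay follows cell death caused by Vpr and the record does not say whether a fall means rescue or toxicity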
#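 Fission yeast strain RE007, carrying one chromosomally integrated HIV-1 vpr copy, was seeded at OD 0.01 in PMG+AL medium with 23 nL pinned compound. After 24 h at 30 °C and 99% humidity, viability was read by BacTiter-Glo luminescence.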
# Cruzain noTriton: inhibitors of Trypanosoma cruzi cruzain without detergent; actives 2.3% (n = 200,000); Potency, µM, without a hit: max response, negative = inhibition, usual class: inhibitors; AID 1476; P25779; purified cruzain, Z-FR-AMC fluorescence, no detergent;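 also: plate controls were enzyme without inhibitor for no effect and buffer without enzyme for full effect; nearly all actives have a fitted effect of over 40% in size; top concentration of the series not given in the record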
#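 Purified cruzain at 1.5 nM, pre-incubated 15 min with compound at room temperature in 100 mM sodium acetate pH 5.5, 5 mM DTT, 0.00005% Triton X-100. Reaction started with 2 uM Z-FR-AMC; AMC fluorescence increase over 60 s gives rate.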
# 2A StopGo: lowers the luciferase signal of an FMDV 2A StopGo reporter; human cells with a luciferase reporter of 2A StopGo recoding; control for the full effect not named in the record; Potency, µM (doses to about 57.9 µM), inactives show at the top dose signal change, negative = less light; actives 1.2% (n = 410,000); active = well fitted falling curve with a large enough effect; inconclusive = small, poorly fitted or top-dose-only effect; inactive = no such curve, though single readings can be large or run the other way; tested in HEK293T cells; also: % is scaled to controls: 0 for no effect and ±100 for the full control effect; nearly all actives have a fitted effect of over 45% in size; luciferase light after 4 h
# LASV entry inh: Lassa virus entry inhibition; Lassa virus pseudotype entry inhibition, cell reporter; control for the full effect not named in the record; Potency, µM (highest dose often 37.9 µM), inactives show at the top dose activity change, negative = inhibition, hits mostly inhibitors; actives 1.2% (n = 300,000); AID 540256; active means well fitted inhibition curve with a large enough effect; inconclusive means small, poorly fitted or top-dose-only effect, or effect the other way; inactive means flat fitted curve, though single readings scatter; tested in HEK293 cells; also: % is scaled to controls: 0 for no effect and ±100 for the full control effect; nearly all actives have a fitted effect of over 50% in size; luciferase read-out
# * = called active by the depositor; ? = inconclusive; / = no result given; [ ] = remark or other dose. Unless noted, calls follow the shape of the dose curve; as a rule, active = well fitted curve in the direction sought with a large enough effect; inconclusive = small, poorly fitted or top-dose-only effect, or another doubt; inactive = no such curve, though single readings can be large; an effect the other way counts as inactive or inconclusive. Potency is read from the fitted curve at half-maximal effect.
# Under each structure: NS1 inh, Marburg entry inh, Cruzain inh Det, SARS PLpro yeast, RE007 growth inh, Cruzain noTriton, 2A StopGo, LASV entry inh
COc1ccc(N2C(=O)C3CCCN3C2c2cccc(OC)c2OC)cc1 (stereo unspecified)
→ ?, -6%, 0.8%, 0%, -6%, -1%, -3%, /
CC(=O)Nc1ccc(N(C(=O)CNC(=O)c2cccs2)C(C(=O)NC(C)(C)C)c2ccccc2)cc1 (stereo unspecified)
→ 3%, -2%[46.1 µM], /, -2%, -8%, /, -5%, -2%
O=C(c1ccccc1C(=O)N(c1ccccc1)c1ccccc1)N1CCCCC1
→ -5%, -9%, -1.7%, -5%, 7%, 4%, -5%, 2%
COC(OC)C1(CCc2ccccc2)NC(=O)NC1=O (stereo unspecified)
→ /, 0%[46.1 µM], /, /, -7%, /, -8%, 1%[46.1 µM]
CC(=O)N1CCCC1c1nc2ccccc2n1Cc1cc(C)ccc1C (stereo unspecified)
→ /, 0%[46.1 µM], -4.3%, /, /, -10%, -9%, -1%[46.1 µM]
O=C(NCCc1csc(-c2cccnc2)n1)c1cccc(Cl)c1
→ -4%, /, -4.5%, -8%, -2%, 5%, ?, -16%[46.1 µM]
CCn1cc(CN2CCN(CCc3ccccc3)C(CCO)C2)c(C)n1 (stereo unspecified)
→ 3%, -1%[46.1 µM], /, 0%, 3%, /, 3%, 4%
CN=C(Nc1cccc(OC)c1)SC1CC(=O)N(c2ccc(C(=O)O)cc2)C1=O (stereo unspecified)
→ 20%, ?, -2.5%, 11%, -9%, -1%, 11%, -8%
Cn1ncc2c(N)nc(NCCO)nc21
→ /, 6%, /, /, -5%, /, -13%, 8%
COc1ccc(S(=O)(=O)N2CCC(C(=O)N[C@@H](C)C(=O)NC3CC3)CC2)cc1
→ 2%, 4%[46.1 µM], /, 1%, 9%, /, 3%, -19%[46.1 µM]
CC(=O)N1CCCc2cc(S(=O)(=O)N3CCC(C(=O)NCc4ccc(C)cc4)CC3)ccc21
→ /, /, 1.4%, /, /, ?, -8%, -15%[46.1 µM]
Cc1ccc(S(=O)(=O)Nc2ccccc2-c2ccccc2NS(=O)(=O)c2ccc(C)cc2)cc1
→ 10µM*, ?, -7.1%, -14%, 5%, -3%, -26%, -25%
CCCOc1cccc(C2c3c(oc4ccccc4c3=O)C(=O)N2c2nncs2)c1 (stereo unspecified)
→ /, 28%[46.1 µM], -2.0%, /, /, ?, -12%, 7%[46.1 µM]
CN1C(=O)CS(=O)c2ccc(C(=O)NC3CC3)cc21 (stereo unspecified)
→ ?, /, 4.4%, -2%, 3%, 2%, -11%, /
CN(C(=O)COC(=O)c1cc(-c2ccccc2Cl)nc2ccccc12)C1CCS(=O)(=O)C1 (stereo unspecified)
→ 0%, 1%, -12%, -1%, 13%, ?, -25%, -9%
CCNC(=O)c1ccc2c(c1)nc1n2CCCCC1
→ /, /, 0.1%, /, /, -13%, 27%, 1%[46.1 µM]
CN(C)c1nc(N2CCN(c3ccccc3)CC2)c(C#N)c(=O)o1
→ 1%, ?, 3.5%, 2%, -8%[3.69 µM], -3%, -7%, -6%
Cc1cccc(Cn2c(=O)n(-c3ccc(CC(=O)NCc4ccco4)cc3)c(=O)c3sccc32)c1
→ 4%, -3%, -5.3%, -3%, -5%, 5%, -25%, /
Cc1cc(NS(=O)(=O)c2ccc(NC(=O)Nc3cccc(C(F)(F)F)c3)cc2)no1
→ 24%, 0%[46.1 µM], /, -1%, -17%, /, 8%, ?
FC(F)Oc1ccc(NC(=S)NC23CC4CC(CC(C4)C2)C3)cc1
→ 12%, -29%[46.1 µM], /, ?, 13%, /, ?, 2.5µM*
Cc1ccc(C)c(NC(=O)CSc2c(C)cnc3c2c(=O)n(C)c(=O)n3C)c1
→ /, /, 0.7%, /, /, -4%, -11%, 5%[46.1 µM]
Cc1cc(C)cc(NC(=O)C2CCN(C(=O)c3cnn(-c4ccccc4)c3-n3cccc3)CC2)c1
→ /, -12%[46.1 µM], -10%, /, /, ?, ?, -18%[46.1 µM]
Cn1c(-c2ccccc2)cnc1NCc1ccccc1
→ 1%, /, /, -1%, 7%, /, 30%[activator], /
O=C(c1cccs1)c1cn(Cc2ccccc2Cl)c2ccccc12
→ 16%, -10%, 2.8%, -12%, 11%, -22%, -30%, -11%
CCCCn1c(N)c(N(Cc2ccccc2OC)C(=O)CCC(C)C)c(=O)[nH]c1=O
→ 5%, -8%, /, -1%, -9%, /, 5%, -15%
CCn1nc(C)c2c(-c3ccccc3)cc(=O)n(C(C)C(=O)Nc3cccc(F)c3)c21 (stereo unspecified)
→ /, /, -6.4%, /, /, -11%, -29%, 0%[46.1 µM]
CCC(=O)Nc1c(-c2cccs2)c(=O)c2ccccc2n1C
→ -2%, -6%, -2.1%, -1%, 10%, -12%, 8%, -8%
O=C(NCC(c1ccc(F)cc1)N1CCOCC1)c1cccnc1Sc1ccccc1 (stereo unspecified)
→ /, -9%, /, 0%, -10%, /, -4%, 22%[46.1 µM]
COc1ccccc1NC(=O)CSc1nnnn1-c1ccc2c(c1)OCO2
→ -36%, ?, 0.4%, 2%, -12%, -7%, /, -15%
COc1ccc(C(=O)N(C)C2(C)CCS(=O)(=O)C2)cc1OC (stereo unspecified)
→ /, 9%[46.1 µM], /, 4%, 16%, /, -29%, 21%
CC1CCCN(CCCNC(=O)c2ccc3c(c2)N(Cc2ccc(Cl)cc2)C(=O)c2ccccc2S3(=O)=O)C1 (stereo unspecified)
→ /, ?, -0.2%, /, /, ?, -4%, ?
CN1C(=O)C(CC(=O)Nc2ccc3c(c2)Cc2ccccc2-3)N(C)C1=O (stereo unspecified)
→ -1%, -1%, -2.6%, 3%, -8%, 5%, -9%, -1%
CN(C)S(=O)(=O)c1cccc(NC(=O)/C=C/c2ccc(S(=O)(=O)N3CCOCC3)cc2)c1
→ /, ?, /, 2%, 1%, /, ?, ?
CCc1ccc(OCCCC(=O)Nc2ccc(N3CCCCC3)cc2)cc1
→ 6%, 10%[46.1 µM], 9.1%, 0%, -14%, ?, 25%, 1%
COc1ccc2cc(C(=O)C3CCCN(C(=O)c4cc(=O)n(C)c(=O)n4C)C3)ccc2c1 (stereo unspecified)
→ -2%, -19%[46.1 µM], /, 0%, -3%, /, -26%, 12%
COC(=O)c1sc(-c2ccc(C(C)(C)C)cc2)cc1NC(=O)CSCC(=O)O
→ 10%, /, /, -2%, -13%, /, 20%, /
COCCC(=O)N1CCC(Oc2ccc(C(=O)NCc3csc(C)n3)cc2)CC1
→ 4%, /, /, 4%, -11%, /, 11%, /
O=C(CN1CCN(S(=O)(=O)N2CCOCC2)CC1)Nc1ccc(Cl)c(Cl)c1
→ -9%, ?, /, 1%, -12%, /, ?, -19%
OCc1ccc2c(c1)c(-c1ccc3c(c1)OCCO3)c(-c1ccccc1)n2-c1ccccc1
→ /, 0%, /, -5%, 5%, /, ?, /
CCN(C(=O)Cn1c(=O)n2nc(CCn3nc(C)cc3C)nc2c2ccccc21)c1cccc(C)c1
→ 4%, 18%, 0.1%, 2%, -1%, ?, 4%, 4%[14.3 µM]
O=C(CCNC(=O)c1ccc(Cl)cc1)Nc1ccc(F)cc1F
→ -7%, 5%, -3.9%, -9%, 9%, 0%, -26%, ?
Cc1ccc(-c2ccc(/C=C(\C#N)C(N)=S)o2)c([N+](=O)[O-])c1
→ -1%, 6%[46.1 µM], /, -2%, 2%, /, 58%[activator], -10%
O=C(COC(=O)c1ccco1)Nc1ccccc1
→ -7%, 4%, 2.1%, -3%, 11%, 7%, -16%, -5%
COc1ccc(Nc2ccc(S(=O)(=O)N3CCCCC3)cc2[N+](=O)[O-])cc1OC
→ ?, ?, -5.8%, 4%, 6%, ?, ?, -3%
Nc1nc2ccccc2n1CCN1CCCC1
→ -10%, ?, -12%, -3%, 3%, -8%, 12%, 23%
O=C(Nc1ccc2oc(-c3cccnc3)nc2c1)c1ccc(-c2cccc(Cl)c2)o1
→ /, /, -8.1%, /, /, 8%, ?, ?
CCN(CC)CCCNc1sc(S(=O)(=O)c2ccccc2)nc1S(=O)(=O)c1ccc(Cl)cc1
→ /, ?, -1.8%, /, /, 11%, 20%, -33%[46.1 µM]
COc1ccc(/C=N/NC(=O)CN(CCc2ccccc2)S(=O)(=O)c2ccc(NC(C)=O)cc2)cc1OC
→ 13%, ?, -4.8%, 3.5µM*, 6%, ?, -10%, ?
COCCN(C(=S)Nc1ccccc1OC)C1CCN(C(C)C)CC1
→ /, -10%[46.1 µM], /, -1%, 32%, /, -6%, -4%
C=CCn1c(SCc2nc3scc(-c4ccccc4)c3c(=O)[nH]2)nnc1-c1ccccc1F
→ 31%, ?, -3.3%, ?, 16%, ?, 28µM*, -9%
Cc1ccccc1OCC(=O)Nc1ccc2nc(SCc3ccccc3)sc2c1
→ /, 14%[46.1 µM], -1.2%, /, /, ?, -6%, -3%[46.1 µM]
OC(CNCc1ccc(Cl)cc1)COc1ccccc1 (stereo unspecified)
→ 3%, /, /, -1%, -5%, /, -14%, /
O=C(NNC(=O)c1cccc(O)c1)Nc1ccc([N+](=O)[O-])cc1
→ 9%, -3%[46.1 µM], /, 0%, 4%, /, -10%, 3%[46.1 µM]
O=C(NC1CCCCC1)NC12CC3CC(CC(C3)C1)C2
→ /, 8%, /, 2%, 20%, /, 17%, -30%
COc1ccc(NC(=O)c2c(C)nn(-c3ccccc3)c2Cl)cc1
→ -13%, ?, /, -7%, -22%, /, 48%[activator], ?

# Pulled by compound from the list above (3):
# Under each structure: NS1 inh, Marburg entry inh, Cruzain inh Det, SARS PLpro yeast, RE007 growth inh, Cruzain noTriton, 2A StopGo, LASV entry inh
OC(CNCc1ccc(Cl)cc1)COc1ccccc1 (stereo unspecified)
→ 3%, /, /, -1%, -5%, /, -14%, /
O=C(NC1CCCCC1)NC12CC3CC(CC(C3)C1)C2
→ /, 8%, /, 2%, 20%, /, 17%, -30%
COCCN(C(=S)Nc1ccccc1OC)C1CCN(C(C)C)CC1
→ /, -10%[46.1 µM], /, -1%, 32%, /, -6%, -4%

# High-throughput results deposited in PubChem BioAssay by National Center for Advancing Translational Sciences (NCATS).
